Compound activity as filed in PubChem BioAssay.
KCNQ2 inh = KCNQ2 channel blockers in CHO-K1 cells – cell-based, FluxOR thallium flux, B-score, primary screen (AID 2156). O88943. 20 min; active compounds read low; only compounds with negative scores are shown here; some inactives read as strong as hits. B-score at 10 µM. 310,000 tested, 1.1% active;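 active = fluorescence ratio B-score at most minus 3 library SDs, with starting brightness B-score within 2 library SDs, cut at about -5.5 in these data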
Target sequence (O88943 whole entry, looked up): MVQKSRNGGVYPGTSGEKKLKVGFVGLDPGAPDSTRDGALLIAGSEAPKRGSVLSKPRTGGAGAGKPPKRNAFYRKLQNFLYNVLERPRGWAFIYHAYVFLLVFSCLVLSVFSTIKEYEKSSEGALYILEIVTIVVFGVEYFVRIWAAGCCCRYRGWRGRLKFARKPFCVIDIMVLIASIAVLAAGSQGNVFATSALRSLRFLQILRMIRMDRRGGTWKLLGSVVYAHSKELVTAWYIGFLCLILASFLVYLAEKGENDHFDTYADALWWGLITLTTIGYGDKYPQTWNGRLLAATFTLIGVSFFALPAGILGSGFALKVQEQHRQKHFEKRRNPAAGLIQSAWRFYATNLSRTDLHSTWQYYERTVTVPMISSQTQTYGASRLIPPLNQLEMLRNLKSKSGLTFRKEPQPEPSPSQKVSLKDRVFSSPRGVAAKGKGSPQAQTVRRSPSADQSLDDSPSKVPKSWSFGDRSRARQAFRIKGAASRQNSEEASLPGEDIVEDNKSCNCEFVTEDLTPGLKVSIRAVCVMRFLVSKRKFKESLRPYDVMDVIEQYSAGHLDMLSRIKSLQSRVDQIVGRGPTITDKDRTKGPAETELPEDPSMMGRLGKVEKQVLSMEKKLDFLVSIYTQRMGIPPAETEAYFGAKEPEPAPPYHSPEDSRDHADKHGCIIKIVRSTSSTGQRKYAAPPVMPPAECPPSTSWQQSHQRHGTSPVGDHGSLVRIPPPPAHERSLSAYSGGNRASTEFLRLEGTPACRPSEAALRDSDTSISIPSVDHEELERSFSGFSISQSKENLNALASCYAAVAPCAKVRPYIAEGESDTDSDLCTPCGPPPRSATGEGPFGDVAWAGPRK
KCNQ2 inh baseline = also measured in KCNQ2 inh; calls as there; B-score; measured here: initial fluorescence intensity artifact check;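 brightness before thallium and not channel activity; 0 = typical well and far values either way flag optical interference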
The depositor's hits bear a star; i = inactive. A portion of the library. The share of hits here may be higher or lower than overall.

1) C=CCCC(=O)N1CCCC(Cc2cccc(Cl)c2)(C(=O)OCC)C1 (stereo not given)
  KCNQ2 inh: i
  KCNQ2 inh baseline: 0.45
2) COc1ccc(OCC(O)CNC(=O)c2sccc2Cl)cc1 (stereo not given)
  KCNQ2 inh: i
  KCNQ2 inh baseline: -0.58
3) CSc1ccc(S(=O)(=O)Nc2ccc(F)cc2)cc1
  KCNQ2 inh: i
  KCNQ2 inh baseline: 3.8
4) Cc1nc(N)sc1N=Nc1ccc(F)cc1
  KCNQ2 inh: i
  KCNQ2 inh baseline: 0.02
5) CCOC(=O)C1CCCN(C(=O)CSc2nc(C)cc(C)n2)C1 (stereo not given)
  KCNQ2 inh: i
  KCNQ2 inh baseline: 1.4
6) COc1cc(C2C(C(=O)c3cccs3)=C(O)C(=O)N2c2cc(C)on2)ccc1O (stereo not given)
  KCNQ2 inh: i
  KCNQ2 inh baseline: 1.9
7) O=C(NC12CC3CC(CC(C3)C1)C2)N1CCCC(CO)C1 (stereo not given)
  KCNQ2 inh: i
  KCNQ2 inh baseline: -0.06
8) COc1ccc(C2C=C(c3ccc(Br)cc3)Nc3nc(NS(C)(=O)=O)nn32)cc1 (stereo not given)
  KCNQ2 inh: i
  KCNQ2 inh baseline: 16
9) O=C(Nc1ccc(Nc2ccccc2)cc1)c1ccc(Cl)c([N+](=O)[O-])c1
  KCNQ2 inh: i
  KCNQ2 inh baseline: 0.25
10) CCN(CC(=O)Nc1ccc(NC(C)=O)cc1)C(=O)CCCOc1cccc(C)c1
  KCNQ2 inh: i
  KCNQ2 inh baseline: -0.53
11) CS(=O)(=O)N1CCN(C(=O)c2ccc(F)cc2)CC1
  KCNQ2 inh: i
  KCNQ2 inh baseline: 0.45
12) CC(C)CCC(C(=O)NC(C)c1ccccc1)C(=O)NC(C)c1ccccc1 (stereo not given)
  KCNQ2 inh: i
  KCNQ2 inh baseline: 1.3
13) N#Cc1c(-c2ccco2)cc(-c2cccnc2)nc1N
  KCNQ2 inh: i
  KCNQ2 inh baseline: -1.3
14) CSc1nc2sc3c(c2c(=O)[nH]1)CCC3
  KCNQ2 inh: i
  KCNQ2 inh baseline: 0.22
15) O=[N+]([O-])c1ccc(Cl)c(S(=O)(=O)Nc2ccc(S(=O)(=O)N3CCOCC3)cc2)c1
  KCNQ2 inh: i
  KCNQ2 inh baseline: 0.18
16) O=C(c1cccc([N+](=O)[O-])c1)N1CCCC(C(=O)N2CCc3ccccc3C2)C1 (stereo not given)
  KCNQ2 inh: i
  KCNQ2 inh baseline: -0.3
17) N#CC1=C(N)Oc2ccc3ccc(O)cc3c2C1c1cccnc1 (stereo not given)
  KCNQ2 inh: i
  KCNQ2 inh baseline: 0.33
18) COCc1ccc(C(=O)N(C)CC2CCCN(CCc3ccccc3F)C2)o1 (stereo not given)
  KCNQ2 inh: i
  KCNQ2 inh baseline: 0.51
19) CCCCc1c(O)nc2sccn2c1=O
  KCNQ2 inh: i
  KCNQ2 inh baseline: 2.8
20) COc1cc2c(cc1NC(=O)COC(=O)C(CCSC)NC(=O)c1ccccc1Cl)oc1ccccc12 (stereo not given)
  KCNQ2 inh: i
  KCNQ2 inh baseline: -0.02
21) O=c1ccnc(SCc2ccccc2Cl)[nH]1
  KCNQ2 inh: i
  KCNQ2 inh baseline: 0.18
22) CCCOc1ccc(-c2nc(C#N)c(NCC3CCCO3)o2)cc1 (stereo not given)
  KCNQ2 inh: i
  KCNQ2 inh baseline: 0.85
23) O=S(=O)(NCc1ccc2c(c1)OCO2)c1ccc2c(c1)oc1ccccc12
  KCNQ2 inh: i
  KCNQ2 inh baseline: 0.72
24) CCN(CC)CCN(C(=O)c1ccc2c(c1)CCCC2)c1nc2c(C)cccc2s1
  KCNQ2 inh: -8.1*
  KCNQ2 inh baseline: -1.1*
25) COc1cccc(CNC(=O)[C@@H](C)N2C(=O)N3CCc4c([nH]c5ccc(OC)cc45)C3(C)C2=O)c1 (stereo not given in full)
  KCNQ2 inh: i
  KCNQ2 inh baseline: -0.42

Ordered by molecular weight (high to low): part of the list above
15) O=[N+]([O-])c1ccc(Cl)c(S(=O)(=O)Nc2ccc(S(=O)(=O)N3CCOCC3)cc2)c1
  KCNQ2 inh: i
  KCNQ2 inh baseline: 0.18
18) COCc1ccc(C(=O)N(C)CC2CCCN(CCc3ccccc3F)C2)o1 (stereo not given)
  KCNQ2 inh: i
  KCNQ2 inh baseline: 0.51
9) O=C(Nc1ccc(Nc2ccccc2)cc1)c1ccc(Cl)c([N+](=O)[O-])c1
  KCNQ2 inh: i
  KCNQ2 inh baseline: 0.25
2) COc1ccc(OCC(O)CNC(=O)c2sccc2Cl)cc1 (stereo not given)
  KCNQ2 inh: i
  KCNQ2 inh baseline: -0.58
22) CCCOc1ccc(-c2nc(C#N)c(NCC3CCCO3)o2)cc1 (stereo not given)
  KCNQ2 inh: i
  KCNQ2 inh baseline: 0.85

Compound profiles (already shown). Order of screens: KCNQ2 inh, KCNQ2 inh baseline
COc1cc(C2C(C(=O)c3cccs3)=C(O)C(=O)N2c2cc(C)on2)ccc1O (stereo not given) is entered as i, 1.9
CSc1ccc(S(=O)(=O)Nc2ccc(F)cc2)cc1 is entered as i, 3.8
CCN(CC(=O)Nc1ccc(NC(C)=O)cc1)C(=O)CCCOc1cccc(C)c1 is entered as i, -0.53
CCN(CC)CCN(C(=O)c1ccc2c(c1)CCCC2)c1nc2c(C)cccc2s1 is entered as -8.1*, -1.1*
CCOC(=O)C1CCCN(C(=O)CSc2nc(C)cc(C)n2)C1 (stereo not given) is entered as i, 1.4

Next entries
26) Cc1cc(C)cc(NC(=O)CCn2cnc3cc(C)c(C)cc32)c1
  KCNQ2 inh: i
  KCNQ2 inh baseline: 1.8
27) Cc1ccc(OCC(=O)NC(C)c2ccccc2)cc1C (stereo not given)
  KCNQ2 inh: i
  KCNQ2 inh baseline: -0.54
28) COc1ccc(/C=C(\NC(=O)c2ccc(OC)cc2)C(=O)N2CCCCC2)cc1
  KCNQ2 inh: i
  KCNQ2 inh baseline: -1.3
29) CCCN1C(=O)c2ccc(C(=O)NC3=NCCS3)cc2C1=O
  KCNQ2 inh: i
  KCNQ2 inh baseline: -0.56
30) COC(=O)c1[nH]c2ccc(Br)cc2c1NC(=O)C(C)N1CCN(C2CCCCC2)CC1 (stereo not given)
  KCNQ2 inh: i
  KCNQ2 inh baseline: 0.51
31) Cc1ccc(CNC(=O)CCS(=O)(=O)c2ccc(Cl)cc2)cc1
  KCNQ2 inh: i
  KCNQ2 inh baseline: 0.02
32) CC1=CC(C)[C@H](/C=N/n2c(=O)[nH]c3c([nH]c4ccc(Br)cc43)c2=O)C(C)C1 (stereo not given in full)
  KCNQ2 inh: i
  KCNQ2 inh baseline: -2.1
33) C=C(C)CN(CC)C(=O)CN1C(=O)NC2(CCc3ccccc32)C1=O (stereo not given)
  KCNQ2 inh: i
  KCNQ2 inh baseline: 0.1
34) Cc1cccc(NC(=O)c2cc(-c3ccc(C)s3)nc3ccccc23)n1
  KCNQ2 inh: -7.5*
  KCNQ2 inh baseline: 1.1*
35) Cc1[nH]n(-c2ccccc2)c(=O)c1N=Nc1ccccc1C(=O)O
  KCNQ2 inh: i
  KCNQ2 inh baseline: 3.5
36) C=CCNC(=S)N1CC2(C)CN(C(=S)NCC=C)CC(C)(C1)C2=O
  KCNQ2 inh: i
  KCNQ2 inh baseline: -0.17
37) Cc1nc2ccc(NC(=O)N3CCN(c4ccccn4)CC3)cc2s1
  KCNQ2 inh: i
  KCNQ2 inh baseline: -2.3
38) CC1CCCCN1C(=O)Cc1ccc(F)cc1 (stereo not given)
  KCNQ2 inh: i
  KCNQ2 inh baseline: -0.07
39) CC/C(=N\NC(=O)c1c(C)nc2ccccn12)c1ccc(Cl)cc1
  KCNQ2 inh: i
  KCNQ2 inh baseline: -3.1
40) CCc1ccc(-c2nc(SCC(=O)N3CCOCC3)n[nH]2)cc1
  KCNQ2 inh: i
  KCNQ2 inh baseline: -0.72
41) C=CCCC(=O)Nc1ccc(Br)cn1
  KCNQ2 inh: i
  KCNQ2 inh baseline: 0.63
42) Cc1occc1C(=O)N1CCCC(N2CCN(c3ccccc3F)CC2)C1 (stereo not given)
  KCNQ2 inh: i
  KCNQ2 inh baseline: 1.1
43) Cc1ccc(NC(=O)C2CC(O)CN2C(=O)Oc2ccccc2)c(C)c1 (stereo not given)
  KCNQ2 inh: i
  KCNQ2 inh baseline: -0.07
44) Cc1cccc(N2CCN(C(=O)COCc3cc(-c4ccc5c(c4)OCO5)on3)CC2)c1C
  KCNQ2 inh: i
  KCNQ2 inh baseline: 1.9
45) CN(C)C(CNC(=O)c1ccc(S(=O)(=O)NCc2ccco2)cc1)c1ccccc1 (stereo not given)
  KCNQ2 inh: i
  KCNQ2 inh baseline: -0.13
46) COc1ccc(C2=NO[C@@H]3C(=O)N(c4ccc5c(c4)OCCO5)C(=O)[C@H]23)cc1OC
  KCNQ2 inh: i
  KCNQ2 inh baseline: 2.9
47) CCOC(=O)c1ccc(NC(=O)c2cc(C)nn2-c2ccccc2)cc1
  KCNQ2 inh: i
  KCNQ2 inh baseline: 1.1
48) O=C(NC1CCN(Cc2ccc(Cl)c(Cl)c2)CC1)c1ccccc1
  KCNQ2 inh: i
  KCNQ2 inh baseline: -0.02
49) CC1(C(=O)N/N=C/c2c(F)c(F)c(F)c(F)c2F)CC1(Cl)Cl (stereo not given)
  KCNQ2 inh: i
  KCNQ2 inh baseline: 0.68
50) COc1ccc(-c2nc(CSCC(=O)NCc3ccco3)c(C)o2)cc1
  KCNQ2 inh: i
  KCNQ2 inh baseline: 0.28

51) CN1C(=O)CC(N2CCN(C(=O)CN3CCCC3)CC2)C1=O (stereo not given)
  KCNQ2 inh: i
  KCNQ2 inh baseline: -0.3
52) COc1cc2c(cc1OC)CN(CC(=O)Nc1cccc([N+](=O)[O-])c1)CC2
  KCNQ2 inh: i
  KCNQ2 inh baseline: 0.4
53) Cc1occc1C(=O)NNC(=O)Nc1ccc(Cl)c(Cl)c1
  KCNQ2 inh: i
  KCNQ2 inh baseline: -0.91
54) COc1cccc(-n2c(SC)nnc2-c2c[nH]c3ccccc23)c1
  KCNQ2 inh: i
  KCNQ2 inh baseline: -0.29
55) Cc1cccc(NC(=O)c2nc[nH]c2C(=O)N[C@@H](Cc2ccccc2)C(=O)OC(C)(C)C)c1
  KCNQ2 inh: i
  KCNQ2 inh baseline: -1.9
56) CCOCCCNC(=O)C(c1ccc(OC)cc1)N(Cc1ccc2c(c1)OCO2)C(=O)c1ccccc1O (stereo not given)
  KCNQ2 inh: i
  KCNQ2 inh baseline: -0.59
57) COc1cccc(-c2noc(-c3ccc(Br)o3)n2)c1
  KCNQ2 inh: i
  KCNQ2 inh baseline: 0.61
58) O=C1CCCN1c1ccc(CNS(=O)(=O)c2ccc(F)cc2)cc1
  KCNQ2 inh: i
  KCNQ2 inh baseline: 1.4
59) Cn1cc(-c2cccc(C(F)(F)F)c2)cc(C#N)c1=O
  KCNQ2 inh: i
  KCNQ2 inh baseline: -0.13
60) Cc1sc(NC(=O)c2ccco2)c(CN2CCN(c3ccc(F)cc3)CC2)c1C
  KCNQ2 inh: i
  KCNQ2 inh baseline: -0.4
61) CCOC(=O)C1=C(CC)Nc2ccccc2N=C1NC(=O)c1ccc(S(=O)(=O)N2CCCC2)cc1
  KCNQ2 inh: i
  KCNQ2 inh baseline: 0.28
62) C/C(=N\Nc1nc(N2CCOCC2)nc(N2CCOCC2)n1)c1ccc([N+](=O)[O-])cc1
  KCNQ2 inh: i
  KCNQ2 inh baseline: -0.66
63) COc1cccc(C(=O)N2c3ccccc3Sc3ccccc32)c1
  KCNQ2 inh: i
  KCNQ2 inh baseline: -1.4
64) COc1ccccc1N1CCN(C(=O)c2cc3c(=O)n(C)c4ccccc4c3n2C)CC1
  KCNQ2 inh: i
  KCNQ2 inh baseline: -0.11
65) CC(C)(C)NC(=O)Nc1ccc2nccnc2c1
  KCNQ2 inh: i
  KCNQ2 inh baseline: 1.5

Ordered by the number under KCNQ2 inh baseline (lowest first): some entries from above
56) CCOCCCNC(=O)C(c1ccc(OC)cc1)N(Cc1ccc2c(c1)OCO2)C(=O)c1ccccc1O (stereo not given)
  KCNQ2 inh: i
  KCNQ2 inh baseline: -0.59
54) COc1cccc(-n2c(SC)nnc2-c2c[nH]c3ccccc23)c1
  KCNQ2 inh: i
  KCNQ2 inh baseline: -0.29
59) Cn1cc(-c2cccc(C(F)(F)F)c2)cc(C#N)c1=O
  KCNQ2 inh: i
  KCNQ2 inh baseline: -0.13
64) COc1ccccc1N1CCN(C(=O)c2cc3c(=O)n(C)c4ccccc4c3n2C)CC1
  KCNQ2 inh: i
  KCNQ2 inh baseline: -0.11
52) COc1cc2c(cc1OC)CN(CC(=O)Nc1cccc([N+](=O)[O-])c1)CC2
  KCNQ2 inh: i
  KCNQ2 inh baseline: 0.4
65) CC(C)(C)NC(=O)Nc1ccc2nccnc2c1
  KCNQ2 inh: i
  KCNQ2 inh baseline: 1.5

Looked up above.
KCNQ2 inh baseline result of entry 58 reads 1.4
KCNQ2 inh baseline result of entry 56 reads -0.59
KCNQ2 inh baseline result of entry 65 reads 1.5
KCNQ2 inh baseline result of entry 57 reads 0.61
KCNQ2 inh baseline result of entry 61 reads 0.28
KCNQ2 inh baseline result of entry 60 reads -0.4
